Screening data as filed in PubChem.
KCNQ2 enhance: enhances the rat KCNQ2 potassium channel. 310,000 compounds, 0.54% hits. CHO-K1 KCNQ2, FluxOR thallium flux fluorescence; stronger effect = higher value. B-score at 10 µM. O88943;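 active = fluorescence ratio B-score at least 3 SD of library B-scores, with initial fluorescence B-score within 3 SD, cut at about 5.3 in these data; same plate scores as AID 2156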;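 also: B-score of peak minus minimum over baseline fluorescence ratio after K+ and Tl+ stimulus; positive B-score means potentiation of KCNQ2 with more thallium influx and brighter signal; only the inactives scoring about 0 or higher are listed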
Target sequence (O88943 whole entry, looked up): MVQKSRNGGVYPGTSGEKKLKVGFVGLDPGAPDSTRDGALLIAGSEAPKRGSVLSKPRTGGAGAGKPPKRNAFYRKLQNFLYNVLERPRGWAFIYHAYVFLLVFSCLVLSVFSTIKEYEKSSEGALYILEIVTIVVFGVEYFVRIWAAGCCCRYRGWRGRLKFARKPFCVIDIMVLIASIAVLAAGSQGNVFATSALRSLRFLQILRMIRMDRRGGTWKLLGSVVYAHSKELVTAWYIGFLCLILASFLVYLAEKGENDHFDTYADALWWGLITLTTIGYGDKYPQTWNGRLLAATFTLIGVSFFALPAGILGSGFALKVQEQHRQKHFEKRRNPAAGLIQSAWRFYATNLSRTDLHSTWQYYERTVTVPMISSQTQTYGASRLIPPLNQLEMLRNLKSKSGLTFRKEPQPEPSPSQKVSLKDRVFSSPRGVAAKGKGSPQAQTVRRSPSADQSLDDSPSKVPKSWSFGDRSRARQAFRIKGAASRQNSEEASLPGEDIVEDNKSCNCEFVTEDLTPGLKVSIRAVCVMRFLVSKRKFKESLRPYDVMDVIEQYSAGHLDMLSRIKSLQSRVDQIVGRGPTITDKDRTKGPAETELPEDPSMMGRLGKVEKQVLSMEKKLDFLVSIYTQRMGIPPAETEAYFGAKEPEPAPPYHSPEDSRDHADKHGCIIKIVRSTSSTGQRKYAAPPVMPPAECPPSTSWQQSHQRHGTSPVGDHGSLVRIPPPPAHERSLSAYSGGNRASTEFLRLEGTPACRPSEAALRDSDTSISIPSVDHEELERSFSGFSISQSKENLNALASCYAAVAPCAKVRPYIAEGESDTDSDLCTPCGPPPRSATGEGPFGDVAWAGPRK
KCNQ2 enhance baseline: also measured in KCNQ2 enhance; calls as there; B-score; compound at 10 µM; measured here: initial fluorescence intensity artifact check;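 brightness before thallium and not channel activity; 0 = typical well and far values either way flag optical interference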
* marks the source's active call; other numbers are inactive results; . = not tested or not shown.

nr	smiles	KCNQ2 enhance	KCNQ2 enhance baseline
1	O=C(CCCN1C(=O)C2CC=CCC2C1=O)Nc1ccccc1F (centres undefined)	1	0.7
2	COc1ccccc1-n1nc(C)c(-c2ccccc2)c1N	2.5	0.93
3	COc1ccccc1C(c1nnnn1C(C)(C)C)N1CCN(Cc2ccncc2)CC1 (centres undefined)	0.87	-2
4	CCN1CCN(C(c2cccs2)C(C)NS(=O)(=O)c2ccc(F)cc2)CC1 (centres undefined)	0.04	-0.94
5	CCCN(C(=O)C(C)Oc1cccc(Cl)c1)c1c(N)n(Cc2ccccc2)c(=O)[nH]c1=O (centres undefined)	0.19	-1.2
6	CC(=O)N/N=C(\N)c1nonc1N	0.94	1
7	O=C(N/C(=C/c1cccs1)C(=O)N1CCOCC1)c1ccccc1	1.5	0.92
8	Cc1cc(C)cc(N(CC(=O)NC(C)C)C(=O)CCC(=O)Nc2ccccn2)c1	0.7	-0.88
9	CC(=O)c1cccc(NC(=O)c2cc(-c3ccc(F)cc3)on2)c1	0.16	0.56
10	O=C(c1ccco1)N1CCN(c2ncnc3c2[nH]c2ccccc23)CC1	3.7	-1.1
11	Cc1ccc(/C=C(\NC(=O)c2ccc(C)cc2)c2nc(=S)[nH][nH]2)cc1	6*	-0.94*
12	Cc1cc(NC(=O)COc2ccc(C(C)(C)C)cc2)no1	1.2	-0.46
13	Cc1ccc(NC(=O)CN2CCCC2)cc1	0.6	0.36
14	CCCCn1c(N)c(N(CCOC)C(=O)CCNC(=O)c2ccc(Cl)cc2)c(=O)[nH]c1=O	0.05	-0.98
15	Cc1c(Cl)cccc1NC(=S)N1CCN(C(=O)c2ccco2)CC1	1.6	-0.86
16	O=[N+]([O-])c1ccc(CN2CCN(c3ncccn3)CC2)cc1	0.8	2.3
17	CCCN(CCC)CCNC(=O)CCC(=O)Nc1ccc2nc(N3CCN(C)CC3)cc(C)c2c1	0.7	-0.69
18	COCCn1nnnc1C(c1cc2cc(OC)ccc2[nH]c1=O)N1CCC(Cc2ccccc2)CC1 (centres undefined)	0.73	-0.36
19	Cc1cc(S(=O)(=O)NCCCN2CCOCC2)c(C)cc1Cl	0.67	0.39
20	CCN(Cc1ccc(O)cc1)CC1CCCN(CCc2cccc(F)c2)C1 (centres undefined)	1.5	-1.6
21	CC(=O)c1ccc(S(=O)(=O)NC2CC(=O)N(c3ccc4c(c3)OCCO4)C2)cc1 (centres undefined)	0.97	-0.37
22	Cc1ccc(S(=O)(=O)N2CCSC2=Nc2ccccc2)cc1	0.21	-0.33
23	CC(Oc1ccccc1)C(=O)Nc1ccc(S(=O)(=O)Nc2nccs2)cc1 (centres undefined)	0.99	0.34
24	Cc1ccc(C(=O)NNC(=S)NC(=O)COc2ccccc2)cc1	1.2	0.03
25	Cc1ccc(C(=O)N/C(=C\c2cn(C)c3ccccc23)C(=O)NCCN2CCOCC2)cc1	0.52	-0.13
26	Cc1nnc(SCCCN2C(=O)c3ccccc3C2=O)o1	1.9	-0.11
27	CC(C)NC(=O)CSc1ncccc1-c1nc2ccccc2[nH]1	0.23	-0.98
28	CCSc1nnc(NC(=O)c2cccnc2Cl)s1	2.1	0.54
29	O=C(N/N=C/c1cccnc1)c1[nH]ncc1Br	0.12	0.87
30	COc1ccc(-c2c(C#N)c(N)nc3sc(C(=O)c4ccc(C)cc4)c(N)c23)cc1	0.71	-0.46
31	CC1CCC(NC(=O)C2CCN(c3c4c(nc5ncnn35)CCC4)CC2)CC1 (centres undefined)	1.8	0.67
32	COC(=O)Nc1cccn(Cc2c(Cl)cccc2Cl)c1=O	0.55	1.2
33	O=C(Nc1ccccc1F)Nc1cc(Cl)ccc1-n1cncn1	1.7	1.6
34	COc1ccc(N(CC(=O)NCc2ccco2)S(=O)(=O)c2c(C)nn(C)c2C)cc1	0.58	1.2
35	COC(=O)COc1cccc(NC(=O)c2cccc(C)c2)c1	0.57	0.84
36	Cc1ccc(O)c([C@H](CCN(C(C)C)C(C)C)c2ccccc2)c1	0.37	.
37	C/C(=N\NC(=O)C1CC1)c1ccccc1Br	0.21	0.47
38	CCc1cc2c(=O)oc(-c3ccc(Br)cc3)nc2s1	0.26	-0.74
39	CN1C(=O)CSc2ccc(NC(=O)NCc3cccnc3)cc21	2.2	-0.71
40	Cn1c(=O)n(Cc2ccccc2)c(=O)c2c1nc(NCC1CCCO1)n2Cc1ccccc1 (centres undefined)	0.01	-1

Ordered by the number under KCNQ2 enhance baseline (falling): 4 of the compounds above
nr	smiles	KCNQ2 enhance	KCNQ2 enhance baseline
31	CC1CCC(NC(=O)C2CCN(c3c4c(nc5ncnn35)CCC4)CC2)CC1 (centres undefined)	1.8	0.67
19	Cc1cc(S(=O)(=O)NCCCN2CCOCC2)c(C)cc1Cl	0.67	0.39
25	Cc1ccc(C(=O)N/C(=C\c2cn(C)c3ccccc23)C(=O)NCCN2CCOCC2)cc1	0.52	-0.13
5	CCCN(C(=O)C(C)Oc1cccc(Cl)c1)c1c(N)n(Cc2ccccc2)c(=O)[nH]c1=O (centres undefined)	0.19	-1.2

(further entries)
nr	smiles	KCNQ2 enhance	KCNQ2 enhance baseline
41	O=C(CN1CCOCCOCCOCCOCC1)Nc1ccccc1	0.77	-1.1
42	C=C(C)C1CCC(C)=C1CC(C)(C)/C=N\n1cnnc1 (centres undefined)	0.08	0.88
43	Cc1ccc(C)c(OCC(=O)Nc2ccc(S(=O)(=O)Nc3onc(C)c3C)cc2)c1	0.77	0.73
44	Cc1cnc(=O)[nH]c1SCc1ccccc1F	0.82	0.38
45	Cc1cccc(OCC(=O)Nc2ccc3nc(C)sc3c2)c1	0.02	2.6
46	COc1ccc(Cc2nc(-c3ccc(-n4cccc4)cc3)no2)cc1OC	1.3	-1.9
47	O=C(CN1C(=O)c2cccc3cccc1c23)N1CCN(c2ccc(F)cc2)CC1	0.89	0.19
48	CC(C)=CC1C(C(=O)Nc2ccc(S(=O)(=O)N3CCOCC3)cc2)C1(C)C (centres undefined)	0.27	0.27
49	COc1ccc(COc2ccsc2C(=O)Nc2ccc(Cl)c(Cl)c2)cc1	0.65	-1
50	CC(C)CNS(=O)(=O)c1ccc(CCC(=O)NCCC2=CCCCC2)cc1	0.32	1.4
51	CC1(C(=O)NC(=S)NNC(=O)c2ccncc2)CCCCC1	0.72	0.68
52	O=c1cc(N2CCCCC2)c(-c2ccccc2)nn1Cc1cccc(Cl)c1	0.04	-1
53	CCCNS(=O)(=O)c1ccc(OCC(=O)Nc2ccc3c(c2)OCO3)cc1	1.2	0.24
54	COc1ccc(C(=O)NC(=S)N2CCNC(=O)C2)cc1Br	1.3	1.2
55	O=C(NC(=S)NCCC1=CCCCC1)c1ccco1	12*	-0.9*
56	COC(=O)c1ccc(-n2cncn2)c([N+](=O)[O-])c1	0.7	-1.6
57	CC(NC(=O)C1CCC(CNS(=O)(=O)c2ccccc2)CC1)c1ccc2c(c1)OCCO2 (centres undefined)	0.56	-0.05
58	CCn1c(O)c2ccc(C(=O)N=NC(=O)c3cccnc3)cc2c1O	0.26	0.43
59	CC(=O)c1ccc2c(c1)CC(C)C(=O)N2C (centres undefined)	0.26	0.25
60	COC(CNC(=O)C(=O)NCC1OCCN1C(=O)c1ccc(Cl)cc1)OC (centres undefined)	1.4	0.4
61	COc1ccc(CCC2CCNCC2)cc1	0.56	0.06
62	O=S1(=O)C[C@@H](O)[C@@H](Nc2ccc(Cl)cc2)C1	2.2	-0.63
63	c1cncc(-c2nnc(-c3cccs3)o2)c1	0.5	1.5
64	COc1ccc(S(=O)(=O)N2CCCC2C(=O)Nc2ccc(C)cc2)cc1 (centres undefined)	1	1.3
65	Cn1c(=O)c2c(nc(N3CCc4ccccc4C3)n2Cc2ccc(Br)cc2)n(C)c1=O	0.02	-0.31
66	COc1cc(OC)c2ccc(=O)oc2c1C(CC(=O)N1CCOCC1)c1ccc(N(C)C)cc1 (centres undefined)	0.85	-0.15
67	COc1ccccc1/C=C/CN1CCOCC1	0.09	-0.94
68	CCOC(=O)N1CCN(c2cc(C)c([N+](=O)[O-])cc2F)CC1	0.07	-1.2
69	Cn1ncc(C#N)c1NC(=O)C1CC(c2c(F)cccc2Cl)=NO1 (centres undefined)	0.3	0.41
70	O=C1Nc2ccccc2/C1=C/c1ccccc1Cl	0.91	0
71	Cc1cccc(NC(=O)c2cccnc2)c1C	1	1.2
72	COc1ccc(/C=C/c2cccc[n+]2C)c(O)c1	0.04	0.14
73	O=C(Nc1ccc(N2CCN(c3ccc(C(F)(F)F)cn3)CC2)nc1)c1cccs1	0.99	0.95
74	CCOC(=O)N1CCN(C(=O)/C=C/c2ccc(OC)c(OC)c2)CC1	4.2	-2
75	Cc1cccc(CSc2nn3c(=O)c(C)nnc3s2)c1	1.6	-1.7
76	CCC(CC)C1C(C#N)=C(N)Oc2cc(C)oc(=O)c21 (centres undefined)	0.34	-1.7
77	Cc1cccc(CS(=O)(=O)Cc2ccc(C(=O)NC3CCCC3)o2)c1	2.4	0.06
78	c1ccc(-c2nc(N3CCOCC3)cc(N3CCOCC3)n2)cc1	2	-2.2
79	O=C(Cc1ccc([N+](=O)[O-])cc1)NCc1cccnc1	1.8	-0.62
80	Cn1c(SCc2cccc(C#N)c2)nc2ccccc2c1=O	0.31	1.4
81	COc1cc2sc3ccc(C#CC4(O)CCCCC4)cc3c(=O)c2cc1OC	0.1	-0.33
82	CN(C(=O)COc1ccc(Cl)cc1Cl)C1(C)CCS(=O)(=O)C1 (centres undefined)	0.68	0.39
83	CCn1c(-c2csc3ccccc23)n[nH]c1=S	0.06	-0.26
84	NC(=O)CCCSc1nc2ccccc2[nH]1	1.7	0.09
85	Nc1cc(N)nc(SCC(=O)N2CCCCC2)n1	2.1	-0.24
86	CNNC(=S)Nc1cccc(C(F)(F)F)c1	0.54	1.3
87	O=C(C1CCN(S(=O)(=O)c2ccc(Br)s2)CC1)N1CCCCC1	2.4	0.02
88	O=[N+]([O-])c1ccc(/C=N/N/C(=N/c2ccccn2)c2ccccn2)cc1	0.65	-1.2
89	Cc1cc(C)nc(N/N=C2/CCCC/C2=C\c2ccccc2)n1	0.15	-0.14
90	O=C(Cn1cnc2scc(-c3cccc([N+](=O)[O-])c3)c2c1=O)NCc1ccco1	1.6	-0.28
91	Cc1ccc2c(c1)C(O)(CC(=O)c1ccc(C)s1)C(=O)N2 (centres undefined)	2.6	-1.6
92	CN(C)S(=O)(=O)c1cccc(C(=O)Nc2ccc(N3CCOCC3)cc2)c1	0.36	0.62
93	N#CCCN1CCN(C2=NC(=O)C(=C3CCCCC3)S2)CC1	0.16	-0.06
94	O=C(/C=C/c1cccc([N+](=O)[O-])c1)N1CCN(c2ccc(F)cc2)CC1	0.48	0.35
95	CCOc1ccc(NC(=O)c2ccc3c(c2)CCN3S(C)(=O)=O)cc1	0.5	-0.14
96	CCn1c2ccccc2c2cc(NC(=O)COC(=O)c3cc(S(=O)(=O)N4CCCCC4)ccc3Cl)ccc21	0.28	0.06

Additional compounds
nr	smiles	KCNQ2 enhance	KCNQ2 enhance baseline
97	CN(C)CCn1c(C(=O)O)cc2ccccc21	0.24	1.1
98	CCOC(=O)c1cnc(-n2nc(C)cc2C)nc1NCCO	0.14	0.55
99	COc1ccccc1C1=NOC(C)(c2sc(-c3ccccc3)nc2C)C1 (centres undefined)	0.07	0.08
100	O=C(O)CC(NC(=O)C12CC3CC(CC(C3)C1)C2)c1ccc(OC2CCCC2)cc1 (centres undefined)	1.1	-0.78
101	O=C(Cc1ccc(-c2ccccc2)cc1)NC1CCCC1	0.01	-0.23
102	CCc1ccc(NC(=O)N(C2CCCCC2)C(C)c2cccnc2)cc1 (centres undefined)	0.07	-1.3
103	Cc1oc(/C=N/NC(=O)CN(c2ccccc2Br)S(C)(=O)=O)cc1Br	0.15	1.2
104	Cc1c(Br)c([N+](=O)[O-])nn1CC(=O)NCc1ccccc1	0.02	0.56

Single records (already shown). Values in the order: KCNQ2 enhance, KCNQ2 enhance baseline
`CCc1ccc(NC(=O)N(C2CCCCC2)C(C)c2cccnc2)cc1` (centres undefined) in the list: 0.07, -1.3
`Cc1oc(/C=N/NC(=O)CN(c2ccccc2Br)S(C)(=O)=O)cc1Br` in the list: 0.15, 1.2
`CCOC(=O)c1cnc(-n2nc(C)cc2C)nc1NCCO` in the list: 0.14, 0.55
`COc1ccccc1C1=NOC(C)(c2sc(-c3ccccc3)nc2C)C1` (centres undefined) in the list: 0.07, 0.08

Next part:
nr	smiles	KCNQ2 enhance	KCNQ2 enhance baseline
105	CCN(CC)CCCOC(=O)c1ccc(OC)cc1O	0.14	-0.71
106	CCOc1cc(/C=C/C(=O)O)ccc1OCCOc1ccccc1	1.6	0.51
107	CCOc1ccccc1CNC(=O)c1ccc2nc(N3CCOCC3)sc2c1	0.13	-0.67
108	O=[N+]([O-])c1ccccc1/C=N/NC1=NCCN1	1.1	0.31
109	CC1=C(C(=O)Nc2ccc(Cl)cc2)C(c2ccncc2)C(C#N)=C(SCC(N)=O)N1 (centres undefined)	0.57	0.15
110	COc1ccc(CCNC(=O)CSc2nnc(CNC(=O)c3cc(OC)c(OC)c(OC)c3)o2)cc1OC	0.36	-1.2
111	N#Cc1cn(N2CCCCC2)c(=O)[nH]c1=O	0.02	2.1
112	COc1cc(C(=O)NCC(=O)N/N=C/c2cccs2)cc(OC)c1OC	0.2	-1.4
113	CCc1ccccc1NC(=O)Nc1ccsc1C(=O)OC	0.41	-0.63
114	O=C(c1cnsn1)N1CCN(c2ccccn2)CC1	1.3	-0.54
115	CC1(C)CC2(CC(c3cccs3)c3cc(Cl)c(O)cc3O2)NC(=S)N1 (centres undefined)	1.9	0.03
116	Cc1ccc(NC2=CC(=O)CC(C)(C)C2)c(N)c1	1.8	-1.8
117	COc1ccc(N(C)C(=O)c2onc3c2CCCC3)cc1	0.71	-0.61
118	CCCCC(=O)N=c1sc2cc(S(C)(=O)=O)ccc2n1C	0.49	-0.72
119	COc1ccccc1CN1CCN(C(=O)c2ccncc2)CC1	1.1	-0.19

Not all compounds are listed, so the mix of outcomes need not match the whole.
